# Bioassay records deposited in PubChem by PCMD.
# Biofilm kill mix – clotrimazole potentiators killing C. albicans biofilm, primary screen, 4-compound mixtures | C. albicans biofilm persisters + clotrimazole, fluorescence viability; primary screen in compound mixtures of four per well | inhibition, % at 7.6 µM | 120,000 tested, 0.02% active | AID 1242, 2008;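 active means inhibition above 30.3% in the primary screen of four-compound pools, then above 30% when the compound was retested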;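 further: compounds exposed to preformed 24 h biofilms for 48 h; the number belongs to the whole pool; some results filed as inactive read as strong as hits; inactives centre near 12; 0% = biofilm with clotrimazole alone and 100% = kill control; retested singly at about 60 µM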
#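 Test system: C. albicans CAF4-2 wild-type biofilms; buffer or medium: RPMI/MOPS medium, pH 7.0; schedule: 24 h biofilm formation, then 48 h compound exposure, 37 °C; detection: Alamar Blue fluorescence; measure: percent inhibition of biofilm viability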
# * = called active by the depositor.
molecule	Biofilm kill mix
Cc1ccc(NC(=O)CNCC(c2ccccc2)N(C)C)cc1F (stereo unspecified)	21
CC(O)c1nc2ccccc2n1CCOc1ccccc1 (stereo unspecified)	7
CCC(=O)Nc1ccc(C(=O)CSc2nc3ccc(C)cc3[nH]2)cc1	15
COC(=O)COc1cc(Cl)c(C=O)cc1OC	8
CC12CC3(C)CC(C)(C1)CC(C(=O)NCc1ccccn1)(C2)C3	17
O=C(Nc1ccc2ccccc2n1)C1CCCCC1	22
N/C(=N\OC(=O)CCCOc1ccc(Cl)cc1Cl)c1ccncc1	7
Cc1ccc(Nc2c(-c3ccc(N(C)C)cc3)nc3ncccn23)cc1	7
CCN(CC)S(=O)(=O)c1ccc(N2CCOCC2)c(NC(=O)c2cc(-c3ccccn3)nc3ccccc23)c1	6
CC(C#Cc1c([C@@H](C)Oc2ccccc2)nnn1Cc1ccccc1)Oc1ccccc1 (stereo partly specified)	-2
COc1ccc(CCN=C(NS(=O)(=O)c2ccccc2)c2ccccc2)cc1OC	11
NC(=S)N=Nc1c(O)n(Cc2ccc(Br)cc2)c2ccccc12	14

# Next part; the last 2 above are carried over.
molecule	Biofilm kill mix
COc1ccc(CCN=C(NS(=O)(=O)c2ccccc2)c2ccccc2)cc1OC	11
NC(=S)N=Nc1c(O)n(Cc2ccc(Br)cc2)c2ccccc12	14
Cn1ncc([N+](=O)[O-])c1C(=O)Nc1nccs1	9
COc1ccc(-c2[nH]ncc2CN2CCSCC2)c(OC)c1	-8
O=C1N/C(=N\S(=O)(=O)Cc2ccccc2)S/C1=C/c1cccc([N+](=O)[O-])c1	19
COc1cccc(OC)c1OCCCCc1c(C)n[nH]c1C	15
CC1Oc2ccccc2C=C1/C=N\NC(=O)c1cccnc1 (stereo unspecified)	15
Cc1nn(Cc2ccccc2Cl)c(Cl)c1/C=C/C(=O)OCC(=O)NC1CCS(=O)(=O)C1 (stereo unspecified)	-2
Cc1ccc2nc(-c3sc4nc(C)ccc4c3N)[nH]c2c1	10
COc1cc(CCC(=O)OCC(=O)Nc2cccc(S(N)(=O)=O)c2)cc(OC)c1OC	13
COc1ccc(N2C(=O)CCC(C(=O)NCCCN3CCC(C)CC3)C2c2ccc(OC)c(OC)c2)cc1 (stereo unspecified)	10
COc1ccc(/C=C/C(=O)OCC(=O)Nc2ccc(OC)c(S(=O)(=O)N3CCCCC3)c2)cc1	25
Cc1sc(NC(=O)Cn2[nH]c(=O)c3ccccc3c2=O)nc1-c1ccccc1	6
CN(C)S(=O)(=O)N1C(=O)c2ccccc2C1=O	21
COc1nc2ccccc2nc1CCC(=O)O	18
Cc1onc(-c2c(Cl)cccc2Cl)c1/C(N)=N/OC(=O)C1CC1	0
CCCCNc1ccc(C(CC(N)=O)NC(=O)Cc2ccc(Br)cc2)cc1[N+](=O)[O-] (stereo unspecified)	14
COc1ccc([C@H]2C=C(C(=O)O)O[C@@H](OCCCCO)C2)cc1	12
Cc1ccc(NC(=S)N2CCC(N(C)CC3CCCO3)CC2)cc1C (stereo unspecified)	23
CCOC(=O)C1=C(CNCCc2ccc(Cl)cc2)NC(=O)NC1c1cccc([N+](=O)[O-])c1 (stereo unspecified)	2
COc1ccc(OCC(=O)OC(C)CN2CCOCC2)cc1 (stereo unspecified)	3
Cc1ccc(-c2ccc(=O)n(CC(=O)NCc3ccc(F)cc3)n2)cc1	9
O=C(COC(=O)CCCSc1nc2ccccc2[nH]1)Nc1ccc(Oc2ccccc2)cc1	10
COc1cc(/C=C(/C#N)c2ccccc2F)ccc1OCc1ccccc1	-9
CC(=O)c1cc(CN2CCC(N3CCC(C(=O)N4CCCC4)CC3)CC2)cs1	10
Cc1ccc(C(=O)Oc2oc(-c3ccccc3)nc2C=Nc2ccc(N(C)C)cc2)cc1	11
Cc1[nH]n(-c2ccccc2)c(=S)c1C=NCCCN=Cc1c(C)[nH]n(-c2ccccc2)c1=S	14
CC(C)(C)c1ccc(OCC(=O)N/N=C/c2ccc(N3CCOCC3)cc2)cc1	11
C#CCOCCOCCOCCNc1nc(N2CCN(C(=O)[C@H](CCCCN)n3cc([C@@H](N)C(C)CC)nn3)CC2)nc(N2CCN(C(=O)[C@H](Cc3ccc(O)cc3)n3cc([C@@H](N)CC(C)C)nn3)CC2)n1 (stereo partly specified)	13
CCOC(=O)c1nn(-c2ccccc2)c2nnc(Cc3ccc(C)cc3)c(=O)n12	17
Cc1cc2nc(-c3ccccc3)cc(=O)n2[nH]1	12
O=C(O)c1ccc(N2C(=O)CC(N3C(=O)/C(=C/c4ccc(Cl)cc4)SC3=S)C2=O)cc1 (stereo unspecified)	18
Cc1cc(C)c(NC(=O)CN2CCOCCOCCOCCOCC2)c(C)c1	19
Cc1occc1C(=O)NNC(=O)C1CCCC1	13
Cc1csc(NC(=O)c2ccc(N3CCCC3=O)cc2)n1	13
C/C(=N\NC(=O)c1ccn(C)n1)c1cccc(NC(=O)c2ccncc2)c1	15
CC(=O)NC1(NC(C)=O)CCN(C)CC1	10
COC(=O)c1ccc(CO/N=C2\CCCc3nonc32)cc1	9

# Other records follow.
SMILES	Biofilm kill mix
N#Cc1ccc(OCC(=O)OCC(=O)Nc2cc(C(F)(F)F)ccc2N2CCOCC2)cc1	9
COc1ccc(/C=C/C(=O)NC(=S)NNC(=O)c2cnccn2)cc1	21
Fc1ccc(N/N=C/c2ccncc2)c(F)c1	9
CC(=O)CSc1cc(-c2ccccc2)nc2ncnn12	15
CCOC(=O)CNS(=O)(=O)c1ccc2c3c(cccc13)C(=O)N2CC	-3
COc1ccc(Oc2nc(-c3ccccc3)ncc2C(=O)O)cc1	11
COC(=O)c1ccccc1NC(=O)CCCn1nc([N+](=O)[O-])cc1C	11
CCOC(=O)/C(C#N)=C\c1cccnc1	10
CCOC(=O)c1sc(NC(=O)c2ccc(OC(C)=O)cc2)nc1C	29
Cc1nc(C(=O)N2CCCC(C(=O)c3ccc(Cl)cc3)C2)cs1 (stereo unspecified)	25
COC(=O)c1ccc(C(=O)OC)c(NC(=S)N2CCC(N3CCCCC3)CC2)c1	4
Cc1cc(C)n(CC(=O)c2cccc(N)c2)n1	-7
Cc1ccc2nc(-c3ccc(NC(=O)C(C)N4C(=O)c5ccccc5C4=O)cc3)sc2c1 (stereo unspecified)	16
O=C(Nn1c(SCc2ccccc2F)nc2ccsc2c1=O)c1ccccc1	11
COc1ccc(/C=C(/Sc2nnc(-c3ccc(Cl)cc3)o2)C(=O)O)cc1	15
COc1cc(OC)cc(C(=O)NC(C)c2ccc(Br)cc2)c1 (stereo unspecified)	-2
COc1ccc(/C=N/Nc2ncnc3sc4c(c23)CCCC4)cc1OC	-10
CCC(C)(C)c1ccc(OCCCC[n+]2cccc(C)c2C)c(C(C)(C)CC)c1	18
CON1C(=O)C(=O)N(OC)C(C)(C)C1(C)C	11
CCCN(CC1CC1)C(=O)COC(=O)c1ccc2c(c1)C(=O)N(c1ccc(OCC)cc1)C2=O	10

# Part of the list above in order of count of non-hydrogen atoms, rising:
SMILES	Biofilm kill mix
CC(=O)NC1(NC(C)=O)CCN(C)CC1	10
CN(C)S(=O)(=O)N1C(=O)c2ccccc2C1=O	21
NC(=S)N=Nc1c(O)n(Cc2ccc(Br)cc2)c2ccccc12	14
Cc1ccc(-c2ccc(=O)n(CC(=O)NCc3ccc(F)cc3)n2)cc1	9
CCOC(=O)c1nn(-c2ccccc2)c2nnc(Cc3ccc(C)cc3)c(=O)n12	17
Cc1ccc2nc(-c3ccc(NC(=O)C(C)N4C(=O)c5ccccc5C4=O)cc3)sc2c1 (stereo unspecified)	16

# An excerpt from further up:
SMILES	Biofilm kill mix
Cc1ccc(NC(=O)CNCC(c2ccccc2)N(C)C)cc1F (stereo unspecified)	21
CC(O)c1nc2ccccc2n1CCOc1ccccc1 (stereo unspecified)	7

# Remaining list, next part.
SMILES	Biofilm kill mix
Fc1cccc(Nc2nc(-c3ccncc3)nc3ccccc23)c1	11
N#Cc1ccccc1NC(=O)CSc1ccc([N+](=O)[O-])cn1	12
O=C(/C=C/c1ccco1)Nc1nc(-c2ccccc2)cs1	4
COc1ccccc1C(=O)NCC(=O)OCc1csc(-c2ccccc2)n1	9
CCN(CC)C(=O)NC(c1ccc(C)c(F)c1)C(Cl)(Cl)Cl (stereo unspecified)	13
O=C(NCC1CCCO1)Nc1cc(Cl)cc(Cl)c1 (stereo unspecified)	18
Brc1ccc(-c2ncc3ccccn23)cc1	27
CC(C)CCOP(=O)(c1ccccc1)c1ccccc1	16
Cc1cc(N/N=C(/CCC(=O)O)C(=O)O)nc2ccccc12	15
C=CCN1C=C2C(=O)C(C)(OC(=O)CCC(=O)OC)C(=O)C(Br)=C2C=C1c1ccc(OC)cc1 (stereo unspecified)	16
CC(C)(C)c1nc(SCC(=O)N2CC(=O)Nc3ccccc32)c2ccccc2n1	15
CCCCC(=O)Nc1ccccc1C(=O)N1CCOCC1	16
COCc1cc(C(C)=O)ccc1OCC(=O)Nc1ccc(NC(C)=O)cc1	6
Cc1cccc(OCC(=O)N/N=C\c2cccn2C)c1C	-3
Fc1ccccc1-c1nc(NCc2ccccc2)c2ccccc2n1	1
Cc1ccc2c(Cl)c(C(=O)N/N=C/c3cccn3C)sc2c1	21
COc1c(C)cc(Br)cc1C(=O)Nc1ccc(S(N)(=O)=O)cc1	7
COc1cccc(NC(=S)N2CCC(N(C)CC3CCCO3)CC2)c1 (stereo unspecified)	12
Cc1ccc[n+](/C(=C\C(=C=[N-])C#N)C(=O)c2ccc(Cl)cc2)c1	-3
COC(=O)c1ccccc1NC(=O)N1c2ccccc2Sc2ccccc21	9
CC1(C)CC(=O)C/C(=N\NC(=O)c2cccs2)C1	5
O=C1CS/C(=N\NC(=O)c2ccccc2)N1	15
CN(CCOc1ccccc1)CC(=O)Nc1ccc(Cl)c(S(=O)(=O)N(C)C)c1	10
Cc1cc(N2C(=O)CC(C(C)c3ccccc3)C2=O)no1 (stereo unspecified)	4
Cc1cc(Nc2ccccc2F)n2nc(C)nc2n1	17
Fc1ccc(C2c3[nH]c4ccccc4c3CCN2Cc2cccn2-c2ncccn2)cc1 (stereo unspecified)	11
CC(=O)c1cc(NC(=O)c2ccc([N+](=O)[O-])cc2)c(=O)oc1C	-8
COc1ccc(CCNC(=O)c2cc3c(=O)n(C)c4ccccc4c3n2C)c(OC)c1	26
CCOC(=O)C1=C(C)NC(C)=C(C(=O)OCC)C1/C=C/c1ccccc1OC	21
CCCCC1OC23CCCCC2C(C#N)(C#N)C1(C#N)C(=N)O3 (stereo unspecified)	18
CNC(=S)N/N=C(\C)c1ccc(C)c(C)c1	9
COc1ccc(CC(=O)NNC(=O)c2cccs2)cc1	19
S=c1[nH]nc(-c2cccc3ccccc23)n1-c1cccnc1	12
CN(C(=O)CSc1nc2c(c(=O)[nH]1)CCC2)c1ccccc1	10
COC(=O)[C@@H]1C[C@@H]2CC[C@@H](O)C[C@@H]2N1Cc1ccccc1OS(=O)(=O)c1ccc(C)cc1	20
CCCC(=O)Nc1nc(-c2ccccc2)ns1	8
COc1cc(CN2CCNC(=O)C2CC(=O)NCc2csc(C(C)C)n2)cc(OC)c1 (stereo unspecified)	30
COc1ccc(NC(=O)C2CCCN(S(=O)(=O)c3c(C)[nH]c(=O)[nH]c3=O)C2)cc1Cl (stereo unspecified)	9
CN(C)C(=O)c1cc(C(=O)c2ccccc2Cl)c[nH]1	-10
Cc1ccc2cc(/C=N/NC(=O)c3ccccc3O)c(Cl)nc2c1	27
CSc1ccccc1Nc1ncnc(N)n1	15
CC(C)(C)c1nnc(N/N=C/c2ccc(Br)cc2)n(N)c1=O	23
O=C(CC1C(=O)NCCN1Cc1ccc(-c2ccccc2)cc1)NCc1ccccc1 (stereo unspecified)	22
COc1ccccc1-c1ccc(/C=C2/C=C(C)OC2=O)o1	19
CCOc1ccc(N(CC(=O)N/N=C/c2ccc(OC(C)C)cc2)S(C)(=O)=O)cc1	16
Cc1ccc(N2C(=O)C3C(C(=O)c4ccccc4)=NN(c4ccccc4)C3C2=O)cc1 (stereo unspecified)	12
O=C1CC(c2ccc(O)cc2)Oc2cc(O)cc(O)c21 (stereo unspecified)	-2
COc1cc2c(cc1NC(=O)CN(C)Cc1ccc(OC)c(OC)c1)oc1ccccc12	10
COc1ccc(NC(C)=O)cc1NC(C)c1nc2sc(C)c(C)c2c(=O)[nH]1 (stereo unspecified)	13
CCOC(=O)C1(C/C(C)=N/NC(N)=O)CC(C)(C)OC1=O (stereo unspecified)	17
COc1ccc(N(CC(=O)Nc2ccc(C(N)=O)cc2)S(=O)(=O)c2ccc(C)c([N+](=O)[O-])c2)cc1	23
COC(=O)c1ccc(/C=N/NC(=O)CC(=O)NCc2cccnc2)cc1	22
Cn1c(CO)cnc1SCc1ccc(F)cc1	13
COc1cc(C(=O)Nc2cc(C(F)(F)F)ccc2N2CCOCC2)ccc1O	-9
COC(=O)c1c(C)[nH]c(C(=O)OCC(=O)NC(C)(C)C)c1C	7
C/C(=N\NC(=O)c1cccs1)c1cccnc1	9
Clc1ccccc1Cc1noc(CN2CCN(c3cnccn3)CC2)n1	3
O=c1cc(N2CCOCC2)cnn1-c1ccccc1	10
O=C(Cn1nc(-c2ccccc2F)ccc1=O)Nc1ccc(S(=O)(=O)N2CCCCCC2)cc1	16
CN(C(=O)CSc1nnc(-c2c[nH]c3ccccc23)o1)C1CCS(=O)(=O)C1 (stereo unspecified)	10
COc1ccc(Nc2nc(N)nc(CSC(=S)N3CCCCC3)n2)cc1	9
Cc1ccc(-c2nnc(Oc3ccc(NC(=O)c4ccccc4)cc3)c3ccccc23)cc1	6

# Only part of the results is shown; rates above refer to the full screens.
